LASV entry inh: qHTS for Inhibitors of binding or entry into cells for Lassa Virus. Lassa virus pseudotype entry inhibition, cell reporter; control for the full effect not named in the record. Potency, µM (series often up to 37.9 µM), without a hit: at the top dose activity change, negative = inhibition, actives largely listed as inhibitors. 300,000 tested, 1.2% active; active means well fitted inhibition curve with a large enough effect; inconclusive means small, poorly fitted or top-dose-only effect, or effect the other way; inactive means flat fitted curve, though single readings scatter; tested in HEK293 cells; further: on the % scale 0 is the no-effect control and ±100 the full control effect; nearly all actives have a fitted effect of over 50% in size; luciferase read-out
MARV entry inh: qHTS for inhibitors of binding or entry into cells for Marburg Virus; Marburg virus pseudotyped entry inhibition, cell reporter; control for the full effect not named in the record; about a third of the inactives were read at about 46 µM; Potency, µM (highest dose often 37.8 µM), for inactives: at the top dose activity change, negative = inhibition, hits mostly inhibitors; 300,000 tested, 1.8% active; AID 540276, 2011; active = well fitted inhibition curve with a large enough effect; inconclusive = small, poorly fitted or top-dose-only effect, or effect the other way; inactive = flat fitted curve, though single readings scatter; tested in HEK293 cells; about a fifth of its hits are not listed in these tables; further: on the % scale 0 is the no-effect control and ±100 the full control effect; luciferase read-out
RE007 growth inh: qHTS Assay for Inhibitors of the HIV-1 protein Vpr. S. pombe RE007 Vpr strain, BacTiter-Glo ATP luminescence, 24 h; control for the full effect not named in the record. Potency, µM (highest dose often 92.2 µM), for inactives: at the highest dose activity change, negative = less growth. 360,000 tested, 0.21% active; active = well fitted falling curve with a large enough effect; inconclusive = small, poorly fitted or top-dose-only effect; inactive = no such curve, though single readings can be large or run the other way;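 further: on the % scale 0 is the no-effect control and ±100 the full control effect; nearly all actives have a fitted effect of over 50% in size; the assay follows cell death caused by Vpr and the record does not say whether a fall means rescue or toxicity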
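Fission yeast strain RE007, carrying one chromosomally integrated HIV-1 vpr copy, was seeded at OD 0.01 in PMG+AL medium with 23 nL pinned compound. After 24 h at 30 °C and 99% humidity, viability was read by BacTiter-Glo luminescence.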
NS1 inh: qHTS Assay for Inhibitors of Influenza NS1 Protein Function; 270,000 tested, 0.4% active; S. cerevisiae slowed by influenza A NS1, growth recovery by OD600; Potency, µM (series often up to 46.1 µM), inactives show at the top dose activity, positive = more growth; AID 2326, 2010; further: actives are rising curves; nearly all actives have a fitted effect of over 50% in size
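OD600 was taken as the measure of yeast growth restored by compound in an NS1-expressing S. cerevisiae strain. Cells had been washed out of glucose medium and diluted 1:100 into galactose -URA medium, pH 6.0.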
Cruzain noTriton: qHTS Assay for Promiscuous and Specific Inhibitors of Cruzain (without detergent). purified cruzain, Z-FR-AMC fluorescence, no detergent. 200,000 tested, 2.3% active. Potency, µM, for the others: max response, negative = inhibition, most hits filed as inhibitors. Cruzipain (Trypanosoma cruzi), P25779; active means well fitted curve in the direction sought with a large enough effect; inconclusive means small, poorly fitted or top-dose-only effect, or another doubt; inactive means no such curve, though single readings can be large; an effect the other way counts as inactive or inconclusive;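 further: plate controls were enzyme without inhibitor for no effect and buffer without enzyme for full effect; nearly all actives have a fitted effect of over 40% in size; top concentration of the series not given in the record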
Target sequence (P25779 123-467 limits assumed): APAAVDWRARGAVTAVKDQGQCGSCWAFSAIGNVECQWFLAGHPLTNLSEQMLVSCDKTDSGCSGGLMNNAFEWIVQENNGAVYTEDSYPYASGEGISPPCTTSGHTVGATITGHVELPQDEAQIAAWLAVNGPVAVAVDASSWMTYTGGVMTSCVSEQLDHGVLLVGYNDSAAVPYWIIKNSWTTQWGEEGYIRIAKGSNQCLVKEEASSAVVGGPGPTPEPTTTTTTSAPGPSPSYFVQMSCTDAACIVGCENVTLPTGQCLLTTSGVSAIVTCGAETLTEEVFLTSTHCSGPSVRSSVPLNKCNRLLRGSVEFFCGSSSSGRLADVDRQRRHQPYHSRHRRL
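Purified cruzain at 1.5 nM, pre-incubated 15 min with compound at room temperature in 100 mM sodium acetate pH 5.5, 5 mM DTT, 0.00005% Triton X-100. Reaction started with 2 uM Z-FR-AMC; AMC fluorescence increase over 60 s gives rate.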
StopGo reporter: High Throughput Screening for Foot and Mouth Disease Virus Antivirals; human cells with a luciferase reporter of 2A StopGo recoding; control for the full effect not named in the record; Potency, µM (highest dose often 57.9 µM), for the others: at the top dose signal change, negative = less light; 410,000 tested, 1.2% active; AID 1159524, 2015; active = well fitted falling curve with a large enough effect; inconclusive = small, poorly fitted or top-dose-only effect; inactive = no such curve, though single readings can be large or run the other way; tested in HEK293T cells; further: on the % scale 0 is the no-effect control and ±100 the full control effect; nearly all actives have a fitted effect of over 45% in size; luciferase light after 4 h
SARS PLP yeast: qHTS of Yeast-based Assay for SARS-CoV PLP; S. cerevisiae expressing SARS-CoV PLpro, growth rescue; control for the full effect not named in the record; Potency, µM (titrated, usually from 32.9 µM), for the others: at the top dose activity, positive = growth rescue; 330,000 tested, 0.19% active; further: 0% is about no effect; nearly all actives have a fitted effect of over 55% in size; growth read by luminescence after 48 h
Cruzain Triton: qHTS Assay for Promiscuous and Specific Inhibitors of Cruzain (with detergent). Potency, µM, for inactives: max response, negative = inhibition, actives largely listed as inhibitors. Cruzipain (Trypanosoma cruzi), P25779. 200,000 tested, 0.43% active. purified cruzain, Z-FR-AMC fluorescence, 0.01% Triton. AID 1478, 2009; active means well fitted curve in the direction sought with a large enough effect; inconclusive means small, poorly fitted or top-dose-only effect, or another doubt; inactive means no such curve, though single readings can be large; an effect the other way counts as inactive or inconclusive;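 further: plate controls were neutral wells for no effect and buffer without enzyme for full effect; nearly all actives have a fitted effect of over 40% in size; top concentration of the series not given in the record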
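In this qHTS format, compounds are incubated with 1.5 nM cruzain for 15 min at room temperature before 2 uM Z-FR-AMC is added. Release of AMC is followed at 360/450 nm, and progress is taken as the 60 s fluorescence difference.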
Starred values were filed as active, the others as inactive; [ ] = dose if it differs, or a comment. Unless noted, the call rests on the fitted dose curve; in most records, active means well fitted rising curve with a large enough effect; inconclusive means small, poorly fitted or top-dose-only effect; inactive means no such curve, though single readings can be large or run the other way. Potency means the concentration at half of the fitted maximal effect.

N#C/C(=C\c1c[nH]c2ccccc12)C(=O)NC1CCCC1 was read as RE007 growth inh -1%, NS1 inh 5%, StopGo reporter 42%[activator] and SARS PLP yeast -4%.
Screening COc1ccc(NC(=O)C(=O)NCCC2CCCCN2S(=O)(=O)c2cccs2)cc1 (stereo not drawn) returned LASV entry inh inconclusive, MARV entry inh inconclusive, RE007 growth inh -4%, StopGo reporter inconclusive and SARS PLP yeast -1%.
CCC(=O)N1c2ccc(S(=O)(=O)N3CCN(c4ccccc4)CC3)cc2CC1C (stereo not drawn) was read as LASV entry inh -27%[46.1 µM], MARV entry inh -29%[46.1 µM], Cruzain noTriton 7%, StopGo reporter inconclusive and Cruzain Triton -4.2%.
For COc1ccc(-n2c(SCC(=O)NC3CCCCC3)nc3ccsc3c2=O)cc1 the results were LASV entry inh 2%, MARV entry inh -1%, RE007 growth inh 13%, NS1 inh -7%, Cruzain noTriton -3%, StopGo reporter -6%, SARS PLP yeast 4% and Cruzain Triton 1.5%.
For CCOc1ccc(NC(=O)/C(C=Nc2ccccc2)=C(\C)O)cc1 the results were LASV entry inh inconclusive, MARV entry inh inconclusive, RE007 growth inh -13%, NS1 inh -1%, StopGo reporter 0% and SARS PLP yeast -1%.
Cc1ccc(S(=O)(=O)N(CCCN2CCCC2=O)Cc2cc3c(C)ccc(C)c3[nH]c2=O)cc1 was read as LASV entry inh -15%, MARV entry inh inconclusive, RE007 growth inh -8%, NS1 inh 17%, Cruzain noTriton inconclusive, StopGo reporter -22%, SARS PLP yeast 4% and Cruzain Triton 3.8%.
Cn1c2ccccc2c(=O)c2ccc(F)cc21 was read as RE007 growth inh -19%, NS1 inh -104%, StopGo reporter 41%[activator] and SARS PLP yeast -44%.
CCOc1ccc(C2Nc3cccc4cccc(c34)N2)cc1OC was read as LASV entry inh 0%, MARV entry inh inconclusive, RE007 growth inh -13%, NS1 inh 12%, Cruzain noTriton -9%, StopGo reporter -18%, SARS PLP yeast -14% and Cruzain Triton -14%.
CCCC(=O)Nc1nnc(CCc2ccccc2)s1 was read as RE007 growth inh -5%, NS1 inh 12%, StopGo reporter 15% and SARS PLP yeast 0%.
`CCC1Oc2ccc(C)cc2N(CC(=O)NCc2cccs2)C1=O` (stereo not drawn) gave LASV entry inh -3%[46.1 µM], MARV entry inh -10%[46.1 µM], RE007 growth inh 8%, StopGo reporter 12% and SARS PLP yeast 3%.
`CCOC(=O)c1sc(N)c(C(N)=O)c1C` gave LASV entry inh 12%[46.1 µM], MARV entry inh 20%[46.1 µM], RE007 growth inh 9%, StopGo reporter 14% and SARS PLP yeast -4%.
For Cc1nn(Cc2ccccc2)c(C)c1NC(=O)c1noc2c1CCc1ccccc1-2 the results were MARV entry inh 5%, RE007 growth inh 9%, NS1 inh 12%, Cruzain noTriton -14%, StopGo reporter inconclusive, SARS PLP yeast 6% and Cruzain Triton 2.3%.
For CC(C)c1cc(CN2CCN(Cc3ccc(F)c(F)c3)C(CCO)C2)[nH]n1 (stereo not drawn) the results were LASV entry inh -15%[46.1 µM], MARV entry inh 8%[46.1 µM], RE007 growth inh -12%, NS1 inh 2%, StopGo reporter 1% and SARS PLP yeast 0%.
For COc1ccc(NC(=O)C2(c3ccc(NC(=O)c4ccc(C)cc4)cc3)CCCC2)cc1 the results were LASV entry inh -5%, MARV entry inh -1%, RE007 growth inh -9%, NS1 inh 9%, Cruzain noTriton 6.3µM*, StopGo reporter 13%, SARS PLP yeast -7% and Cruzain Triton 1.5%.
CN1CCN(NC(=O)c2cccc(Br)c2)CC1 was read as LASV entry inh 2%, MARV entry inh 3%, RE007 growth inh 3%, NS1 inh -11%, Cruzain noTriton 7%, StopGo reporter -17%, SARS PLP yeast 0% and Cruzain Triton -0.7%.
For CCC1=C2CC[C@H]3C(=O)NC(=O)[C@H]3[C@H]2[C@@]2(Cc3ccccc3)C(=NCC(=O)OC)OC(=O)N2C1=O the results were RE007 growth inh -2%, NS1 inh 2%, Cruzain noTriton -3%, StopGo reporter -3%, SARS PLP yeast -3% and Cruzain Triton 1.1%.
`CC1CN(Cc2cc(=O)[nH]c(C3CC3)n2)CC(C)O1` (stereo not drawn) gave LASV entry inh 15%, MARV entry inh 3%, RE007 growth inh -6%, NS1 inh 25%, Cruzain noTriton -8%, StopGo reporter 3%, SARS PLP yeast 5% and Cruzain Triton 0.6%.
CSCCC(=O)N1CCCC(N(C)CCc2ccccc2)C1 (stereo not drawn) was read as RE007 growth inh 4%, NS1 inh 2%, StopGo reporter 1% and SARS PLP yeast -1%.
Nc1nonc1-n1nnc(C(=O)N/N=C/c2ccc(Cl)cc2Cl)c1CN1CCCC1 was read as LASV entry inh 2%, MARV entry inh 3%[46.1 µM], RE007 growth inh 0%, NS1 inh inconclusive, StopGo reporter -13% and SARS PLP yeast 2%.
`COc1ccc(NC(=O)CCS(=O)(=O)c2ccc(OC)cc2)cc1` gave LASV entry inh 4%, MARV entry inh 1%, RE007 growth inh 17%, NS1 inh 2%, Cruzain noTriton 2%, StopGo reporter -19%, SARS PLP yeast 10% and Cruzain Triton 2.6%.
`Cc1ccc(-c2nc(CSc3nc4ccccc4c(=O)n3C)cs2)cc1` gave LASV entry inh -8%, MARV entry inh inconclusive, RE007 growth inh -8%, NS1 inh 14%, Cruzain noTriton -10%, StopGo reporter 0%, SARS PLP yeast -16% and Cruzain Triton -4.9%.
`CCCNS(=O)(=O)c1ccc(OC)c(Cl)c1Cl` gave LASV entry inh 25%, MARV entry inh -10%, RE007 growth inh 0%, NS1 inh -8%, Cruzain noTriton -4%, StopGo reporter 67%[activator], SARS PLP yeast -4% and Cruzain Triton -0.3%.
`Cc1ccc(C(=O)N2CCN(c3ccccc3F)CC2)cc1NC1=NC2CS(=O)(=O)CC2S1` (stereo not drawn) gave RE007 growth inh 11%, NS1 inh -11%, StopGo reporter -11% and SARS PLP yeast 5%.
`CCOc1ccc(N2C(=O)C3C4C=CC([C@H]5CC45)[C@@H]3C2=O)cc1` (stereo partly drawn) gave RE007 growth inh 7%, NS1 inh -2%, StopGo reporter 22% and SARS PLP yeast 5%.
For CN(C(=O)c1ccc(NC(=O)Cc2ccc(NC(=O)C3CCN(C(=O)C4CCCC4)CC3)cc2)cc1)C1CC1 the results were MARV entry inh -4%, RE007 growth inh 9%, StopGo reporter 1% and SARS PLP yeast 8%.
CC(=O)Nc1ccc(NC(=O)Cn2c(-c3ccc(F)cc3)cnc2SCC(=O)Nc2c(C)cccc2C)cc1 was read as LASV entry inh 12%, MARV entry inh -8%, RE007 growth inh 40%, NS1 inh 2%, Cruzain noTriton 20µM*, StopGo reporter 16%, SARS PLP yeast inconclusive and Cruzain Triton 1.3%.
Cc1cc(=O)oc2c(C)c(OCC(=O)N3C[C@H]4C[C@@H](C3)c3cccc(=O)n3C4)ccc12 was read as RE007 growth inh -7%, NS1 inh -6%, StopGo reporter 22% and SARS PLP yeast -3%.
Screening COCC(=O)N1CCC(Oc2ccc(C(=O)N3CCCCCCC3)cc2)CC1 returned LASV entry inh -5%, MARV entry inh -2%, RE007 growth inh 30%, NS1 inh -4%, StopGo reporter 18% and SARS PLP yeast 0%.
CCC1=C(OC(=O)N(CC)CC)N2C(=O)OC(=NCC(=O)OC)[C@]2(Cc2ccccc2)[C@H]2C1=CC[C@H]1C(=O)N(CC(=O)OC)C(=O)[C@H]12 was read as RE007 growth inh 10%, NS1 inh -4%, Cruzain noTriton inconclusive, StopGo reporter 34%[activator], SARS PLP yeast 1% and Cruzain Triton -0.5%.
For COC(=O)c1cccc(NC(=O)CCCN2C(=O)NC3(CCCC3)C2=O)c1 the results were LASV entry inh inconclusive, MARV entry inh inconclusive, RE007 growth inh -12%, StopGo reporter -7% and SARS PLP yeast -1%.
For CCOC(=O)c1ccc(Nc2cc(C)nc(-c3ccccc3O)n2)cc1 the results were LASV entry inh inconclusive, MARV entry inh inconclusive, RE007 growth inh -4%, NS1 inh 2%, Cruzain noTriton 2%, SARS PLP yeast -1% and Cruzain Triton 1.6%.
Screening CCC1=Nc2cc(C(=O)NCCCOC)ccc2Sc2ccc(Br)cc21 returned LASV entry inh inconclusive, MARV entry inh inconclusive, Cruzain noTriton inconclusive, StopGo reporter -4% and Cruzain Triton -7.6%.
`Cc1cc(C)n(-c2ccc(C(=O)OCC(=O)Nc3ccc(Cl)c(S(=O)(=O)N(C)C)c3)cc2)n1` gave LASV entry inh -5%, MARV entry inh -27%, RE007 growth inh 3%, NS1 inh 9%, Cruzain noTriton 15%, StopGo reporter 4%, SARS PLP yeast 2% and Cruzain Triton 0.7%.
`CC(C)CNC(CC(=O)O)c1ccccc1` (stereo not drawn) gave LASV entry inh 27%, MARV entry inh 12%, RE007 growth inh -4%, StopGo reporter 0% and SARS PLP yeast 0%.
CCc1nn2cc(-c3ccccc3)nc2s1 was read as LASV entry inh 8.2µM*, MARV entry inh 18µM*, RE007 growth inh inconclusive, NS1 inh -40%, Cruzain noTriton 0%, StopGo reporter -89%, SARS PLP yeast -11% and Cruzain Triton -3.7%.
For Oc1ccc(-c2nc3ccccn3c2NCc2ccco2)cc1 the results were LASV entry inh 14%, MARV entry inh -3%, RE007 growth inh -8%, NS1 inh 2%, Cruzain noTriton -1%, StopGo reporter 0%, SARS PLP yeast -4% and Cruzain Triton -5.6%.
Cc1cccc(NC(=O)CCN2CC(C)OC(C)C2)c1 (stereo not drawn) was read as LASV entry inh -3%, MARV entry inh 2%, RE007 growth inh 4%, NS1 inh 5%, Cruzain noTriton 6%, SARS PLP yeast -3% and Cruzain Triton 8.6%.
